H5N1 CPE = MDCK cell protection from H5N1 avian flu. cytopathic effect, luminescence, 72 h; stronger effect = higher value; no value below 0 was filed and about half of the inactive calls have no number; reference of the scale not given here. inhibition, % at 50 µM. hit rate 0.07% among 96,000; in the data active = inhibition above about 25%
* = called active by the depositor; i = inactive. This is a subset; rates above refer to the full screens.

SMILES	H5N1 CPE
Cc1occc1C(=O)Nc1cccc2ccccc12	i
Cc1cc2ncn(N)c2cc1C	0.1
CCOC(=O)CSc1nc2ccc(NC(C)=O)cc2s1	i
CS(=O)(=O)N1CCN(c2nc(-c3ccccc3)cs2)CC1	i
CS(=O)(=O)N(CC(=O)N1CCC(C(N)=O)CC1)C1CCCCC1	i
Cn1c(C(=O)Nc2ccc3c(c2)OCO3)cc2sccc21	i
O=C(CN1C(=O)CCC1=O)NCC12CC3CC(CC(C3)C1)C2	1.4
O=S(=O)(N1CCOCC1)n1cnc2ccccc21	i
CN(C)C(=O)COc1ccc2ccc(=O)oc2c1	0.8
O=C(O)CCC(=O)OCC1CCCCC1	0.1
O=C(CC1N=C2c3ccccc3N=C(SCc3ccccc3Cl)N2C1=O)NCc1ccco1 (configuration not stated)	2.3
NC(=O)CCn1c(=O)oc2ccccc21	i
CCn1cnc2cc(NCc3ccncc3)ccc21	0.9
NC(=O)CSc1nnc(Cn2c(=O)sc3ccccc32)n1CCc1ccccc1	0.0
Cc1nc2sc(C(c3ccccc3)N3CCC(O)CC3)c(O)n2n1 (configuration not stated)	i
NC(=O)C1CCN(c2nc(C3CC3)nc3c2nnn3Cc2ccccc2)CC1	0.1
CC(=O)Nc1ncc2c(n1)CC(c1ccco1)CC2=O (configuration not stated)	5.2
CCOC(=O)c1ccccc1NC(=O)CSc1ncc(C(=O)OCC)c(N)n1	0.2
COCCn1nnnc1C(c1ccc(Cl)cc1)N1CCSCC1 (configuration not stated)	0.8
O=C(NCc1cccs1)c1csc2ccccc12	6.8
O=c1cc(-c2ccc(Cl)cc2)[nH][nH]1	i
CCOc1ccc(NC(=O)c2ccccc2OCC(=O)c2ccc(C)cc2)cc1	i
S=c1[nH]nc(-c2ccc(Br)o2)n1Cc1ccccc1	0.4
CCc1nnc(NC(=O)C2CCCCC2)s1	i
CCOC(=O)C(NC(=O)CC)(Nc1cc(C)on1)C(F)(F)F (configuration not stated)	i

Reformatted field by field: 4 of the compounds above
> CC(=O)Nc1ncc2c(n1)CC(c1ccco1)CC2=O (configuration not stated)
  H5N1 CPE: 5.2
> Cc1cc2ncn(N)c2cc1C
  H5N1 CPE: 0.1
> CN(C)C(=O)COc1ccc2ccc(=O)oc2c1
  H5N1 CPE: 0.8
> Cc1nc2sc(C(c3ccccc3)N3CCC(O)CC3)c(O)n2n1 (configuration not stated)
  H5N1 CPE: i

New compounds follow.
SMILES	H5N1 CPE
CC(=O)OCC1OC(Sc2cccc3cccnc23)C(OC(C)=O)C(OC(C)=O)C1OC(C)=O (configuration not stated)	i
CN(CC(=O)Nn1cnnc1)S(=O)(=O)c1ccc(Br)cc1	i
COc1ccc(OC)c(CN2C(=O)c3ccccc3C2C(=O)NCc2cccnc2)c1 (configuration not stated)	0.0
CCOCCCn1c(SCC(=O)NCc2ccco2)nc2c(sc3ccccc32)c1=O	0.5
Nc1cc(-c2ccccc2)ccc1O	i
NC(=O)C1(N2CCCCC2)CCN(C(=O)NC2CCCCC2)CC1	0.3
Cc1ccc(C(=O)C2COC(=O)C2)cc1 (configuration not stated)	2.1
CCOC(=O)NC(NCC(O)c1ccccc1)(C(F)(F)F)C(F)(F)F (configuration not stated)	i
O=C(NC1CCCc2ccccc21)c1cncc(Br)c1 (configuration not stated)	1.0
O=c1c(/C=C(\O)c2ccc(F)cc2)nc2ccccc2n1-c1ccccc1	1.1
CN(C)S(=O)(=O)N1CCN(C(=O)c2cccs2)CC1	0.1
Cc1nnc(SCC(=O)Nc2sccc2C#N)n1Cc1ccccc1	0.6
CCCCC(=O)Nc1cccc(NC(=O)c2ccccc2Br)c1	i
Cn1c(=O)[nH]c(=O)c2c1nc(NCCCn1ccnc1)n2Cc1cccc(Br)c1	1.4
COc1ccc(-n2c(Cn3c(=O)sc4ccccc43)nnc2SC)cc1	0.5
CN(c1ccccc1)c1nc(-n2ccnc2)nc(-n2ccnc2)n1	2.0
Cn1c(=O)[nH]c(=O)c2c1nc(Br)n2CC(O)c1ccccc1 (configuration not stated)	1.9
Cc1cc(C)c(S(=O)(=O)N2CCCCC2)cc1N(C)S(=O)(=O)c1ccc(Cl)cc1	1.4
CC(=O)/C=C1\SC(CC(=O)O)C(=O)N1c1ccccc1 (configuration not stated)	0.7
COc1cc(C2C(C(=O)OC(C)C)=C(C)Nc3ncnn32)cc(OC)c1OC (configuration not stated)	0.3
Oc1cc2c(cc1CN1CCN(c3ccccc3)CC1)CCC2	i
CCOc1ccc(N2C(=O)/C(=C/c3cccs3)N(CC(=O)OC)C2=S)cc1	i
CCC(C)(C(=O)NC1CCCC1)N(CC1CCCO1)C(=O)c1ccc2c(c1)OCO2 (configuration not stated)	i
CS(=O)(=O)N(CCc1ccccc1)CC(=O)N1CCN(Cc2ccccc2)CC1	0.3
Cc1ccc2nc(N3C(=O)C(O)=C(C(=O)c4ccco4)C3c3cccs3)sc2c1 (configuration not stated)	i

Fetched one by one from above:
SMILES	H5N1 CPE
Oc1cc2c(cc1CN1CCN(c3ccccc3)CC1)CCC2	i
Cc1cc(C)c(S(=O)(=O)N2CCCCC2)cc1N(C)S(=O)(=O)c1ccc(Cl)cc1	1.4
CN(C)S(=O)(=O)N1CCN(C(=O)c2cccs2)CC1	0.1
CCOc1ccc(N2C(=O)/C(=C/c3cccs3)N(CC(=O)OC)C2=S)cc1	i
NC(=O)C1(N2CCCCC2)CCN(C(=O)NC2CCCCC2)CC1	0.3
CCC(C)(C(=O)NC1CCCC1)N(CC1CCCO1)C(=O)c1ccc2c(c1)OCO2 (configuration not stated)	i
CC(=O)OCC1OC(Sc2cccc3cccnc23)C(OC(C)=O)C(OC(C)=O)C1OC(C)=O (configuration not stated)	i

(cont.)
SMILES	H5N1 CPE
Cn1cc(/C=N/n2cnc3scc(-c4ccccc4)c3c2=O)c2ccccc21	i
CCOC(=O)C1=C(C)NC(C)=C(C(=O)OCC)C1c1cn(-c2ccccc2)nc1-c1ccco1	0.8
CN(CC(=O)Nc1ccc(Cl)cc1)CC(=O)Nc1cc(Cl)ccc1C#N	7.4
CC(=O)Nn1c(-c2ccccc2)cc2ccccc21	1.6
Cc1cccc(N2CCN(C(=O)c3ccc(NS(=O)(=O)c4c(C)noc4C)cc3)CC2)c1C	0.8
Cc1cccc(C)c1OCC(=O)N/N=C/c1cc2c(cc1[N+](=O)[O-])OCO2	0.6
CCS(=O)(=O)N1CCCC(C(=O)NCCCN(C)Cc2ccccc2)C1 (configuration not stated)	i
CCCC1=NN2C(=N)/C(=C\c3ccc(SCc4ccco4)o3)C(=O)N=C2S1	0.6
CCOc1ccccc1NC(=O)c1cccc(NC(=O)CC(c2ccccc2)c2ccccc2)c1	i
Cc1ccc(N/C=C(\C#N)c2ccc(OCCCF)cc2)cc1	i
CC(C)n1nnnc1SCC(=O)c1ccc2c(c1)OCCO2	i
CCn1c(=O)c(=O)[nH]c2cc(C(=O)NC3CCCc4ccccc43)ccc21 (configuration not stated)	i
CON1C(=O)C(=O)N(OC)C(C)(C)C1C (configuration not stated)	i
Cc1nn(C)c(Oc2cccc(Cl)c2)c1C(=O)Nc1ccc(F)cc1	i
CCC(=O)c1cc(F)c(N2CCN(C(=O)Cc3ccccc3)CC2)cc1C	2.6
CCN(C#N)c1nc(N(C)C)nc(N(C)C)n1	0.8
Cc1nc2ccccn2c1-c1csc(NCc2ccco2)n1	1.4
CCC(C)NC(=O)C1CCN(S(=O)(=O)c2cccs2)CC1 (configuration not stated)	i
Cc1ccc2c(c1)CCCN2C(=O)c1cccs1	0.6
COc1cc(OC)c(OC)cc1CNCCNC(=O)c1nonc1N	i
COc1ccc(NC(=O)CSc2nc3sc(C)c(C)c3c(=O)n2Cc2ccco2)cc1	0.4
COc1ccc(CCC(=O)Nc2ccc(N3CCOCC3)cc2)cc1	0.5
COc1cc(/C=N/N2C(=O)CSC2=S)ccc1O	0.2
Cc1ccc2cc(CN(CCCN3CCOCC3)C(=O)NC3CCCCC3)c(=O)[nH]c2c1C	i
O=C(/C=N/O)NCc1cccnc1	0.1

Next part:
SMILES	H5N1 CPE
CCOC(=O)N1CCN(C(=O)c2ccc3c(c2)N(Cc2ccc(C)cc2)CCS3)CC1	0.8
COc1ccc(-c2cnc(N)nc2-c2ccc(OC)cc2O)cc1	2.0
CC(O)CNC(=O)C1CCN(Cc2ccc(OCc3ccccc3)cc2)CC1 (configuration not stated)	i
CCCNC(=O)COC(=O)CCC(=O)c1ccc(F)cc1	i
COC(=O)c1ccc(NC(=O)CSc2nnc(Cc3cccn3C)n2-c2ccc(F)cc2)cc1	0.9
Cn1c(Br)nc2c1c(=O)n(CC(O)COc1ccccc1)c(=O)n2C (configuration not stated)	i
CC1CN(C(=O)COC(=O)c2cccs2)CC(C)O1 (configuration not stated)	0.3
CN1CCCCCC1=NC1=C(C#N)CCCC1	0.7
O=C(C1CC1)N1CCc2cc(Br)cc(S(=O)(=O)N3CCN(c4ccccn4)CC3)c21	0.8
CC(=O)C1=C(NC(=O)c2ccc(F)cc2)CC2C1C2(C)C (configuration not stated)	i
COC(=O)c1cc(OC)c(OC)cc1NC(=O)CCc1ccc(C)o1	i
Cc1cccc(-n2c(SCCC(=O)O)nnc2-c2cccs2)c1C	0.7
CCCc1nnc(SCC(=O)N2CCCC(C)C2)n1CC1CCCO1 (configuration not stated)	i
CCN(CC)C(=O)CN1CCC(n2c(C)nc3cc(C(F)(F)F)ccc32)CC1	0.5
C=CCOc1ccc(C2/C(=C(\O)c3c(C)[nH]c(C(=O)OC)c3C)C(=O)C(=O)N2CCN(C)C)cc1 (configuration not stated)	i
c1csc(CCNc2ncnc3sc4c(c23)CCC4)c1	0.2
O=C(c1cc(Cl)c(=O)n(Cc2ccccc2)c1)N1CCOCC1	0.9
COC(=O)c1sccc1-c1ccc(/C=N/OCc2c(Cl)cccc2Cl)o1	i
CSCC[C@H](NC(=O)c1nn(C)c(=O)c2ccccc12)c1nc2ccccc2[nH]1	i
CN(C)CCOC(C1CCCCC1)C1CCCCC1	2.6
CCCOc1ccc(N2C(=O)C3ON(c4ccccc4)C(c4ccc(O)c(OC)c4)C3C2=O)cc1 (configuration not stated)	i
CCOC(=O)c1cc(C(=O)Nc2ccccc2F)nn1C	i
O=C(NCCCN1CCCC1=O)c1cccs1	0.5
CC(=O)Oc1cccc(N2C(=O)CC(Nc3ccc(N4CCOCC4)cc3)C2=O)c1 (configuration not stated)	i
CC(=O)OC(C(=O)NCCc1ccccc1)c1cccnc1 (configuration not stated)	0.8

Carrying on.
SMILES	H5N1 CPE
CCOc1ccc(C(=O)NCCCn2ccnc2)cc1	0.2
COc1cc2nc(C3CC3)n(NC(=O)c3ccc(F)cc3)c(=O)c2cc1OC	0.3
COc1ccccc1NC(=O)c1ccc2nc(N3C(=O)CCC3=O)sc2c1	2.1
CCOc1cc(S(=O)(=O)Nc2ccc(Cl)cn2)ccc1F	1.1
COC(=O)C1=C(C)OC(N)=C(C#N)C1c1ccc(OC)c(CSc2ccccn2)c1 (configuration not stated)	0.5
Nc1cc(=O)[nH]n1C1CCN(c2ccccc2)CC1	0.7
CCCCn1cc(C(C)(C)C)c(C#N)c1NC(C)=O	1.2
O=C1CC(c2nc3ccccc3[nH]2)CN1c1ccccc1 (configuration not stated)	i
COC(=O)c1[nH]c(C)c(/C(O)=C2\C(=O)C(=O)N(CCN(C)C)C2c2ccccc2OC)c1C (configuration not stated)	0.7
COC(=O)C(C)N1C(=O)S/C(=C/c2cc(C)n(C(C)C)c2C)C1=O (configuration not stated)	1.5
O=C(Oc1ccccc1)Oc1ccc2c(c1)oc(=O)c1ccccc12	0.1
N/C(=N\OC(=O)c1cccc(Br)c1)c1ccccc1	i
Cc1ccccc1CSc1nccn1-c1ccccc1	i
CCOC(=O)c1cc2sc(C)cc2n1CC(=O)NCCc1ccccc1	0.4
CCS(=O)(=O)N1CCCC(C(=O)NCCCOC(C)C)C1 (configuration not stated)	0.7
COc1cc(CN2CCC(C(=O)N3CCN(c4ccccc4F)CC3)CC2)cc(OC)c1OC	0.2
O=C(NC1CC2CCCC(C1)N2C(=O)Nc1ccccc1)c1ccncc1 (configuration not stated)	i
COc1cc(-c2nn3c(COc4ccccc4)nnc3s2)cc(OC)c1OC	0.5
CC(C(=O)NCc1ccco1)n1cc(C(=O)c2ccco2)c2ccccc21 (configuration not stated)	3.9
COc1cccc2c(C)nc(Nc3nc(CSc4nnc(C)s4)cc(=O)[nH]3)nc12	0.3
COC(=O)c1cc(OC)c(OC)cc1NC(=O)CN1C(=O)c2ccccc2C1=O	i
Cc1cc(C)nc(NS(=O)(=O)c2ccc(NC(=O)NC3CCCCC3)cc2)n1	0.5
COc1ccc(-c2cc(CNC(=O)CCl)on2)cc1	i
Cc1ccc(-c2noc(CSc3nnc(-c4ccncc4)n3-c3ccc(C)cc3)n2)cc1	0.9
O=c1c2ccccc2c(-c2ccc(Br)cc2)nn1Cc1ccccc1	i

Part of the list above in order of SMILES length, ascending.
SMILES	H5N1 CPE
CCS(=O)(=O)N1CCCC(C(=O)NCCCOC(C)C)C1 (configuration not stated)	0.7
COc1cc2nc(C3CC3)n(NC(=O)c3ccc(F)cc3)c(=O)c2cc1OC	0.3
COC(=O)c1cc(OC)c(OC)cc1NC(=O)CN1C(=O)c2ccccc2C1=O	i
Cc1ccc(-c2noc(CSc3nnc(-c4ccncc4)n3-c3ccc(C)cc3)n2)cc1	0.9

Carrying on:
SMILES	H5N1 CPE
O=C(CN1CCN(c2ncccn2)CC1)NCCC1=CCCCC1	50*
COc1ccc(CC(=O)Nc2ccc(-c3nnc(-c4ccccc4)o3)cc2)cc1	i
CC1(C)Cc2nc3oc4c(N(CCO)Cc5ccccc5)ncnc4c3cc2CO1	i
CCOC(=O)c1ccccc1NC(=O)COc1ccccc1	i
CCOC(=O)N1CCN(C(=O)CSc2nnc(COc3ccc(Cl)cc3)o2)CC1	i
CCN(CC)CCN1C(=O)C(=O)/C(=C(/O)c2cnn(-c3ccccc3)c2C)C1c1ccc(C)o1 (configuration not stated)	0.2
Cn1ncc(C#N)c1/N=C/N1CCOCC1	i
O=C(c1ccc(Cl)cc1)N1CCCC(c2ccccc2)=N1	3.0

Assay outcomes as filed in PubChem.
